NOMO-1 viab – STK33 inhibitor candidate reducing NOMO-1 cell viability | inhibition, % (concentration not given with the values) | NOMO-1 AML viability, CellTiter-Glo luminescence, 72 h | actives 7.5% (n = 37,000);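 active means most replicates above 80%; inconclusive means exactly half above 80%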;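 further: wells of about 30 µL received 25 nL stock; 0% = median of vehicle wells and 100% = reference inhibitor level; the first replicate is given; inactives centre near 10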
Starred values were filed as active, the others as inactive. The list is partial, so the mix of outcomes need not match the whole.

Cc1cc(C(=O)Nc2cccc3c2O[C@@H](CN(C)Cc2ccc(-c4ccccc4)cc2)[C@@H](C)CN([C@@H](C)CO)C3=O)n(C)n1 was read as NOMO-1 viab 33.
Screening C[C@@H]1CN([C@@H](C)CO)C(=O)c2cccc(NS(=O)(=O)c3cccs3)c2O[C@@H]1CN(C)Cc1ccncc1 returned NOMO-1 viab -14.
`C[C@H](CO)N1C[C@H](C)[C@H](CN(C)C(=O)Nc2cccc3ccccc23)Oc2c(NC(=O)c3cnccn3)cccc2C1=O` gave NOMO-1 viab -17.
C[C@H]1CN([C@@H](C)CO)C(=O)c2cccc(NS(=O)(=O)c3ccc(Cl)cc3)c2O[C@H]1CN(C)C(=O)NC1CCCCC1 was read as NOMO-1 viab 29.
`CCn1c(SCC(=O)Nc2ccc(Cl)c(Cl)c2)nnc1-c1cc2cccc(OC)c2o1` gave NOMO-1 viab 100*.
For N#C/C(=C\c1ccncc1)c1ccc(NC(N)=O)cc1 the results were NOMO-1 viab 20.
`Cc1noc(C)c1S(=O)(=O)Nc1ccc2c(c1)C(=O)N([C@@H](C)CO)C[C@H](C)[C@H](CN(C)S(=O)(=O)c1cccs1)O2` gave NOMO-1 viab -10.
`Cc1nn(C)c(C)c1NC(=O)CSc1nnc(-c2cccc(Br)c2)n1-c1ccccc1` gave NOMO-1 viab -9.
For COc1ccc(S(=O)(=O)Nc2cccc3c2O[C@H](CN(C)C(=O)NC(C)C)[C@@H](C)CN([C@H](C)CO)C3=O)cc1 the results were NOMO-1 viab 11.
Screening Cc1noc(C)c1NC(=O)Nc1ccc2c(c1)CC(=O)N([C@H](C)CO)C[C@H](C)[C@H](CN(C)S(=O)(=O)c1ccccc1)O2 returned NOMO-1 viab -18.
Screening O=C1C(=O)N(Cc2ccco2)C(c2ccccc2)C1C(=O)c1cccs1 (configuration not stated) returned NOMO-1 viab -5.
Screening CSc1ccccc1NC(=O)CSc1nnnn1-c1ccccc1C returned NOMO-1 viab 18.
Cc1ccc(S(=O)(=O)N(C)CC(=O)Nc2ccccc2C(N)=O)cc1 was read as NOMO-1 viab -10.
`CC(=O)c1ccccc1NS(=O)(=O)c1c(C)nn(-c2ccccc2)c1C` gave NOMO-1 viab 18.
Cc1nc(C(N)=NC(=O)c2ccc(OC(F)(F)F)cc2)cs1 was read as NOMO-1 viab 12.
Screening Cc1noc(C)c1S(=O)(=O)N(C)C[C@@H]1Oc2ccc(NC(=O)CCC(F)(F)F)cc2CC(=O)N([C@H](C)CO)C[C@@H]1C returned NOMO-1 viab -10.
CC(C)NC(=O)N(C)C[C@@H]1Oc2ccc(NC(=O)Cc3ccccc3)cc2CC(=O)N([C@H](C)CO)C[C@H]1C was read as NOMO-1 viab -2.
Screening C[C@@H]1CN([C@H](C)CO)C(=O)c2cccc(NC(=O)CCCCCC(=O)Nc3ccccc3N)c2O[C@H]1CN(C)CC1CCCCC1 returned NOMO-1 viab 139*.
Screening C=C1CC[C@H](O)CC1=C/C=C1\CCC[C@]2(C)[C@@H]([C@H](C)CC[C@@H](O)C(C)(C)O)CC[C@@H]12 returned NOMO-1 viab 29.
Cc1ccc2ccc(C(Nc3ccccn3)c3ccc(Cl)cc3)c(O)c2n1 (configuration not stated) was read as NOMO-1 viab 132*.
`C[C@@H]1CN([C@H](C)CO)C(=O)Cc2cc(NC(=O)C3CC3)ccc2O[C@@H]1CN(C)Cc1ccncc1` gave NOMO-1 viab 7.
Screening COC1OC(O)C(O)C12CC[C@@]1(O2)[C@H](C)C[C@H]2OC(=O)[C@@]3(C)CCC[C@]1(C)C23 (some centres not stated) returned NOMO-1 viab 18.
Screening CCC(C)C1NC(=O)C(CCC(=O)O)N(C)C(=O)C(C(C)C)N(C)C(=O)CNC(=O)C2CCCN2C(=O)C(Cc2ccccc2)NC(=O)C(C(C)CC)OC(=O)C(CCC(=O)O)N(C)C(=O)C(C(C)C)NC(=O)C2CCCCN2C1=O (configuration not stated) returned NOMO-1 viab 110*.
For Cc1noc(C)c1S(=O)(=O)Nc1ccc2c(c1)C(=O)N([C@H](C)CO)C[C@H](C)[C@@H](CN(C)C(=O)Nc1ccccc1)OCCCC[C@@H](C)O2 the results were NOMO-1 viab 28.
`CC(C)(O)[C@@H]1Cc2cc3ccc(=O)oc3cc2O1` gave NOMO-1 viab 13.
`Cc1cc(C(=O)Nc2cccc3c2O[C@H](CN(C)Cc2ccc(C(=O)Nc4ccccc4N)cc2)[C@@H](C)CN([C@@H](C)CO)C3=O)n(C)n1` gave NOMO-1 viab inconclusive.
Screening C[C@@H]1CCCCO[C@@H](CN(C)CC2CCCCC2)[C@@H](C)CN([C@H](C)CO)C(=O)c2cc(NC(=O)Nc3ccccc3)ccc2O1 returned NOMO-1 viab 122*.
Screening Cc1ccc(S(=O)(=O)Nc2cccc3c2O[C@H](CN(C)S(=O)(=O)c2ccccc2)[C@@H](C)CN([C@H](C)CO)C3=O)cc1 returned NOMO-1 viab 14.
Screening Cc1nn(C(=O)Cn2ccc([N+](=O)[O-])n2)c(C)c1I returned NOMO-1 viab -2.
CC(=O)NC1=NN(C(C)=O)C(c2cccc3ccccc23)N1C(C)=O (configuration not stated) was read as NOMO-1 viab 15.
`C[C@@H]1CN([C@H](C)CO)C(=O)c2cc(NS(=O)(=O)c3cn(C)cn3)ccc2O[C@H]1CN(C)S(=O)(=O)c1ccc(F)cc1` gave NOMO-1 viab 7.
C[C@@H]1CC[C@]2(C(=O)O)CC[C@]3(C)C(=CCC4[C@@]5(C)CC[C@@H](O)[C@](C)(C(=O)O)C5CC[C@]43C)C2[C@H]1C (some centres not stated) was read as NOMO-1 viab 8.
C[C@@H]1CN([C@H](C)CO)C(=O)c2cccc(NC(=O)C3CCCCC3)c2O[C@H]1CN(C)Cc1ccc2c(c1)OCO2 was read as NOMO-1 viab 37.
CS(=O)(=O)N(CC(=O)Nc1ccc(F)c(Cl)c1)C1CCCCC1 was read as NOMO-1 viab 15.
C[C@@H]1CCCCO[C@@H](CN(C)C(=O)CCC(F)(F)F)[C@@H](C)CN([C@H](C)CO)C(=O)c2cc(NC(=O)CCCN(C)C)ccc2O1 was read as NOMO-1 viab -1.
Screening Cc1c(C(N)=O)nnc2cc(-c3ccccc3)nn12 returned NOMO-1 viab 28.
For COc1ccc(NC(=O)Nc2ccc3c(c2)C(=O)N([C@H](C)CO)C[C@H](C)[C@@H](CN(C)C(=O)Nc2cccc4ccccc24)OCCCC[C@@H](C)O3)cc1 the results were NOMO-1 viab 39.
Screening CNC[C@H]1Oc2c(NC(=O)C3CCOCC3)cccc2C(=O)N([C@@H](C)CO)C[C@@H]1C returned NOMO-1 viab 6.
Screening CC1CCN(C(=O)c2cc3nc(-c4ccco4)cc(C(F)(F)F)n3n2)C(C)C1 (configuration not stated) returned NOMO-1 viab 76.
Screening Cc1sc(NC(=O)c2ccco2)c(C(=O)NCc2cccnc2)c1C returned NOMO-1 viab 24.
Screening COc1ccccc1OCC(=O)Nc1ccccc1C(=O)Nc1cccc(C(=O)O)c1 returned NOMO-1 viab -6.
For CC(=O)c1cccc(N(CC(=O)Nc2cc(C)cc(C)c2)S(C)(=O)=O)c1 the results were NOMO-1 viab -16.
Screening COc1ccc(S(=O)(=O)N(C)C[C@@H]2Oc3ccc(NC(=O)Nc4cccc5ccccc45)cc3CC(=O)N([C@@H](C)CO)C[C@@H]2C)cc1 returned NOMO-1 viab 39.
For C[C@H]1CN([C@@H](C)CO)C(=O)Cc2cc(NC(=O)Cc3ccccc3)ccc2O[C@H]1CN(C)C(=O)NC1CCCCC1 the results were NOMO-1 viab -2.
`CC(C)NC(=O)N(C)C[C@@H]1Oc2c(NC(=O)c3ccc(-c4nccs4)cc3)cccc2C(=O)N([C@@H](C)CO)C[C@H]1C` gave NOMO-1 viab 31.
Cc1noc(C)c1NC(=O)Nc1ccc2c(c1)C(=O)N([C@@H](C)CO)C[C@H](C)[C@H](CN(C)C(=O)NC(C)C)O2 was read as NOMO-1 viab -3.
For COc1ccc(S(=O)(=O)N(C)C[C@H]2Oc3ccc(NS(=O)(=O)c4ccc(C)cc4)cc3C(=O)N([C@@H](C)CO)C[C@H]2C)cc1 the results were NOMO-1 viab 9.
Screening C[C@@H]1CN([C@@H](C)CO)C(=O)c2cc(N(C)C)ccc2O[C@@H]1CN(C)C(=O)Nc1cccc2ccccc12 returned NOMO-1 viab 13.
`CC(C)NC(=O)Nc1ccc2c(c1)CC(=O)N([C@H](C)CO)C[C@@H](C)[C@@H](CN(C)C(=O)Nc1ccc3c(c1)OCO3)O2` gave NOMO-1 viab 22.
CC(N=Cc1ccccc1O)c1ccccc1 (configuration not stated) was read as NOMO-1 viab 24.
COc1cc(OC)cc(OC)c1 was read as NOMO-1 viab 24.
For Cc1cccc(Cn2nc(C(C)(C)C)cc2C(=O)Nc2cccnc2)c1 the results were NOMO-1 viab inconclusive.
O=C(CSc1ncnc2scc(-c3ccc(Br)cc3)c12)Nc1ccccc1 was read as NOMO-1 viab 7.
`COc1ccc(CN(C)C[C@@H]2Oc3ccc(NC(=O)Cc4ccccc4)cc3C(=O)N([C@H](C)CO)C[C@H]2C)cc1` gave NOMO-1 viab -19.
`Cc1cc(C(=O)O)nn1-c1ccccc1` gave NOMO-1 viab -9.
For C[C@@H]1CN([C@H](C)CO)C(=O)c2cc(NC(=O)Nc3ccc(C(F)(F)F)cc3)ccc2O[C@H]1CN(C)Cc1ccc(Cl)c(Cl)c1 the results were NOMO-1 viab 123*.
Cc1ccc2c(c1)c(-c1ccccc1)c(-c1ccccc1)n2CC(O)CN1CCN(CCO)CC1 (configuration not stated) was read as NOMO-1 viab 90*.
`CC(C)NC(=O)Nc1cccc2c1O[C@@H](CN(C)S(C)(=O)=O)[C@@H](C)CN([C@@H](C)CO)C2=O` gave NOMO-1 viab -6.
`COc1ccc(CN(C)C[C@H]2Oc3c(NS(=O)(=O)c4cccs4)cccc3C(=O)N([C@@H](C)CO)C[C@@H]2C)cc1` gave NOMO-1 viab 1.
Cc1ccc(S(=O)(=O)N2CCOCC2)c(C)c1 was read as NOMO-1 viab 18.

Structures above that contain a thiophene ring, fused or not:
Screening C[C@@H]1CN([C@@H](C)CO)C(=O)c2cccc(NS(=O)(=O)c3cccs3)c2O[C@@H]1CN(C)Cc1ccncc1 returned NOMO-1 viab -14.
`Cc1noc(C)c1S(=O)(=O)Nc1ccc2c(c1)C(=O)N([C@@H](C)CO)C[C@H](C)[C@H](CN(C)S(=O)(=O)c1cccs1)O2` gave NOMO-1 viab -10.
Screening O=C1C(=O)N(Cc2ccco2)C(c2ccccc2)C1C(=O)c1cccs1 (configuration not stated) returned NOMO-1 viab -5.
Screening Cc1sc(NC(=O)c2ccco2)c(C(=O)NCc2cccnc2)c1C returned NOMO-1 viab 24.
O=C(CSc1ncnc2scc(-c3ccc(Br)cc3)c12)Nc1ccccc1 was read as NOMO-1 viab 7.
`COc1ccc(CN(C)C[C@H]2Oc3c(NS(=O)(=O)c4cccs4)cccc3C(=O)N([C@@H](C)CO)C[C@@H]2C)cc1` gave NOMO-1 viab 1.

Back to the main list; the two compounds before the break are reprinted first.
`COc1ccc(CN(C)C[C@H]2Oc3c(NS(=O)(=O)c4cccs4)cccc3C(=O)N([C@@H](C)CO)C[C@@H]2C)cc1` gave NOMO-1 viab 1.
Cc1ccc(S(=O)(=O)N2CCOCC2)c(C)c1 was read as NOMO-1 viab 18.
Screening COc1ccc(CN(C)C[C@H]2Oc3c(NC(=O)Nc4ccc(C(F)(F)F)cc4)cccc3C(=O)N([C@H](C)CO)C[C@H]2C)cc1 returned NOMO-1 viab 95*.
`Cc1cc(C(=O)Nc2cccc3c2O[C@H](CN(C)Cc2ccccc2)[C@@H](C)CN([C@@H](C)CO)C3=O)n(C)n1` gave NOMO-1 viab -1.
O=C(CSc1nnc(-c2cccnc2)o1)c1ccc2ccccc2c1 was read as NOMO-1 viab 23.
Screening C[C@H](CO)N1C[C@H](C)[C@@H](CN(C)S(C)(=O)=O)Oc2ccc(NC(=O)CCCCCC(=O)Nc3ccccc3N)cc2C1=O returned NOMO-1 viab -17.
CC(C)NC(=O)Nc1cccc2c1O[C@@H](CN(C)Cc1ccc(C(=O)O)cc1)[C@@H](C)CN([C@H](C)CO)C2=O was read as NOMO-1 viab -6.
C[C@H](CO)N1C[C@H](C)[C@H](CN(C)Cc2ccc(Oc3ccccc3)cc2)Oc2ccc(NC(=O)CCCN(C)C)cc2C1=O was read as NOMO-1 viab 53.
Screening Cc1ccc(S(=O)(=O)Nc2cccc3c2O[C@H](CN(C)Cc2ccc(C(F)(F)F)cc2)[C@@H](C)CN([C@@H](C)CO)C3=O)cc1 returned NOMO-1 viab 15.
Screening CC1(C)CC[C@]2(C(=O)O)CC[C@]3(C)C(=CCC4[C@@]5(C)C[C@@H](O)[C@H](O)[C@](C)(CO)C5CC[C@]43C)[C@@H]2[C@@H]1O (some centres not stated) returned NOMO-1 viab 17.
Screening O=C(O)CSc1nnc(-c2sc3ccccc3c2Cl)n1-c1ccccc1 returned NOMO-1 viab 4.
`CC(=C/C(=O)O)/C=C/c1ccccc1` gave NOMO-1 viab 29.
For CC(=O)N1CN(CCCn2ccnc2)Cc2c1sc1c2CCCC1 the results were NOMO-1 viab 42.
`C[C@@H]1CN([C@H](C)CO)C(=O)Cc2cc(NC(=O)Nc3ccc(F)cc3)ccc2O[C@H]1CN(C)Cc1ccc2c(c1)OCO2` gave NOMO-1 viab 37.
Screening C[C@@H]1CN([C@@H](C)CO)C(=O)Cc2cc(NC(=O)C3CCCCC3)ccc2O[C@@H]1CN(C)Cc1ccc(-c2ccccc2)cc1 returned NOMO-1 viab inconclusive.
C[C@H]1CN([C@@H](C)CO)C(=O)c2cccc(NS(=O)(=O)c3ccccc3)c2O[C@@H]1CN(C)C(=O)Nc1cccc2ccccc12 was read as NOMO-1 viab -8.
